# Screening results deposited in PubChem BioAssay by Vanderbilt University.
# GIRK2 activ – GIRK2 channel activation. P48051. HEK293-GIRK2 thallium flux, Thallos fluorescence. calls only for hits at 25 µM. 63,000 compounds, 0.05% hits;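 active = among the strongest 0.2% of first-round signals and kept after retests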;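 note: first round at about 10 µM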
# Target sequence (P48051 whole entry, looked up): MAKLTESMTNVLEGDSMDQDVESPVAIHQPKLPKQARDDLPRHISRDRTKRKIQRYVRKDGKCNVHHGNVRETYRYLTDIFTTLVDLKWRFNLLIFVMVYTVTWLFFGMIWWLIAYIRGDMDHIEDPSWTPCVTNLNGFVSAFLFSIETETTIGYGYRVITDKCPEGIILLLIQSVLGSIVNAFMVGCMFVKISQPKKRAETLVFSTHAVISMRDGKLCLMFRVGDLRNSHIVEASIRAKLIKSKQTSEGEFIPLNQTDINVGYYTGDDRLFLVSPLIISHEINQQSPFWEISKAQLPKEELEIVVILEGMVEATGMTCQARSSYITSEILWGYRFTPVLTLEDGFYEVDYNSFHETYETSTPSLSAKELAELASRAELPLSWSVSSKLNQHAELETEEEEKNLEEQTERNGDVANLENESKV
# Calls only; i = inactive.
Compound	GIRK2 activ
COc1ccc(CNC(=O)c2ccc(OC)nn2)cc1	i
CCCCN(C)Cc1nc(-c2ccc(N3CCOCC3)nc2)no1	i
COc1ccc(OC)c(NC(=O)Cn2nc3c(SCc4ccc(Cl)cc4)nccn3c2=O)c1	i
O=C(c1ccccn1)N1CCN(c2cc(-c3ccccc3)ncn2)CC1	i
Cc1cc(C)c(S(=O)(=O)N2CCCC2)c(C)c1N(C)S(C)(=O)=O	i
COC(=O)c1ccccc1NC(=O)c1cc(S(=O)(=O)N2CC(C)CC(C)C2)c(C)o1 (stereo not given)	i
COc1ccc(NC(=O)c2sccc2S(=O)(=O)N(C)c2ccc(F)cc2)cc1Cl	i
O=C(Nc1ccc2c(c1)CCC(=O)N2Cc1ccccc1)Nc1cccs1	i
Cn1c(CN2CCN(C(=O)c3cc4ccccc4o3)CC2)nc2ccccc21	i
CCOc1ccc(N2CC(c3nc(-c4cc(OC)c(OC)c(OC)c4)no3)CC2=O)cc1 (stereo not given)	i
Cc1cc(NC(=O)NC(c2ccccc2)c2ccccc2)no1	i
CC(C)(Oc1ccc(Cl)cc1)C(=O)NCc1n[nH]c(=O)c2ccccc12	i
CCSc1ccccc1C(=O)NCc1nc(COc2ccc(OC)cc2)no1	i
CCc1nc(SCC(=O)NCC2CCCO2)c2c3c(sc2n1)CCC3 (stereo not given)	i
COc1nn(C)cc1C(=O)N1CCc2nc(NC(C)=O)sc2C1	i
COc1cc(OC)cc(C(=O)NCCc2cc(C)no2)c1	i
COc1ccc(NC(=O)c2cn(Cc3ccc(NC(=O)c4cccc(F)c4)cc3)cn2)cc1	i
CC(C)c1ccc2c(c1)CC[C@H]1[C@](C)(CN)CCC[C@]21C	i
O=C(Nc1ccccc1Cl)c1csc(-n2cccc2)n1	i
Cc1cc(NC(=O)c2cc(=O)c3ccccc3o2)n(-c2nc3c(cnn3-c3ccccc3)c(=O)[nH]2)n1	i
COc1ccc2nc(N(CCCn3ccnc3)C(=O)c3ccc(F)cc3)sc2c1	i
COc1ccc(NC(=O)c2coc(NC(=O)c3cnccn3)n2)cc1Cl	i
CCCCc1ccc(NCCn2c(C)c(C)n3c4c(=O)[nH]c(=O)n(C)c4nc23)cc1	i
Cc1nc2sccn2c1-c1nnc(SCC(=O)NCc2ccccc2Cl)n1C	i
CS(=O)(=O)N1CCCc2ccc(NC(=O)Cn3c(=O)oc4ccccc43)cc21	i
CC1CCN(C(=O)C(=O)c2cn(CC(=O)N3CCOCC3)c3ccccc23)CC1	i
COc1ccccc1C1c2c(oc3ccc(Br)cc3c2=O)C(=O)N1C (stereo not given)	i
O=C(Cn1cnc2ccccc21)Nc1nc2c(s1)COCC2	i
C=CCn1c(C)cn2c3c(=O)n(C/C=C/C)c(=O)n(C)c3nc12	i
Nc1ccc(S(=O)(=O)NCC(=O)O)cc1	i
COc1ccc(N2N=NC3C(=O)N(c4cc(C)cc(C)c4)C(=O)C32)cc1OC (stereo not given)	i
CCOCCCN1COc2ccc3c(=O)c(-c4ccccc4OC)coc3c2C1	i
COc1cccc(-c2cc(C(=O)N3CCOCC3CN(C)C)[nH]n2)c1 (stereo not given)	i
O=C(COc1ccccc1Cl)N1CCN(c2cc(-c3ccccc3)ncn2)CC1	i
CCC(=O)Nc1sc2c(c1-c1nc3ccccc3s1)CCN(CC)C2	i
O=C(Cn1nc(-n2cccn2)ccc1=O)NCc1cccs1	i
COC(=O)c1ccc(S(=O)(=O)NCC(c2ccsc2)N2CCOCC2)cc1 (stereo not given)	i
O=C(Nc1cccc(Cl)c1)N1CCN(c2cc(-n3cccc3)ncn2)CC1	i
O=C(NCC(O)c1ccoc1)C1COc2ccccc2O1 (stereo not given)	i
O=C(c1cnn(-c2ccccc2)n1)N1CCC(Oc2nc3c(F)cccc3s2)CC1	i
O=C(NCC1(CO)CC1)C12CC3CC(CC(C3)C1)C2	i
COc1ccc(S(=O)(=O)NCC(c2cccnc2)N2CCN(C)CC2)cc1C (stereo not given)	i
CC(=O)Nc1ccc2c(c1)C(c1ccccc1Cl)=Nc1c(n[nH]c1C)N2	i
COc1ccc(C)cc1NC(=O)Cn1nc2ccc(SC(C)(C)C)nn2c1=O	i
CCCN(CCC)S(=O)(=O)c1ccc(C(=O)N2CCc3ccccc32)cc1	i
Cc1nnc(C2CCCN(C(=O)CCS(=O)(=O)c3ccccc3)C2)s1 (stereo not given)	i
CCCn1cnc2c1c(=O)n(C)c(=O)n2C	i
COCCNC(=O)C1CCC(CNS(C)(=O)=O)CC1 (stereo not given)	i
COc1ccc(N2C(=O)/C(=C/c3ccc(O)c(OC)c3)SC2=S)cc1	i
O=S(=O)(NCCC(O)c1ccoc1)c1ccc(F)c(Cl)c1 (stereo not given)	i

# (continued)
Compound	GIRK2 activ
CCCNC(=O)Cn1nc2c(c1NC(=O)COc1ccccc1OC)CSC2	i
O=C(CN1CCN(C(=O)c2cnccn2)CC1)c1cccs1	i
Cc1ccc(-n2ccn(CC(=O)Nc3ccc(Br)cc3)c(=O)c2=O)cc1C	i
O=C(Nc1nnc(-c2ccc(Cl)cc2Cl)o1)c1cnccn1	i
COc1ccc(Cl)cc1C(=O)Nc1nnc(-c2cc(C)oc2C)o1	i
O=C(NCCCn1ncccc1=O)c1cc(-c2ccc(F)cc2)c[nH]1	i
CCC1CCCCN1C(=O)c1cnc2nc(C)ccc2c1Nc1ccc(S(N)(=O)=O)cc1 (stereo not given)	i
COc1cc(NC(=O)NCC(c2cccn2C)N2CCOCC2)cc(OC)c1 (stereo not given)	i
CC(C)(C)C(=O)Nc1ccc(C(=O)NCCNS(=O)(=O)c2ccc(F)cc2)cc1	i
O=S(=O)(c1cccc2c(S(=O)(=O)N3CCCCCC3)cccc12)N1CCCCCC1	i
N#Cc1ccsc1NC(=O)C1CCN(S(=O)(=O)c2ccc(F)cc2)CC1	i
Cc1noc(-c2ccn3c(=O)n(Cc4ccc(F)cc4)nc3c2)n1	i
NC(=O)c1ccc(NC(=O)CN2CCN(c3ccc(F)cc3)C2=O)cc1	i
O=C(CC1CCCCC1)N1CCCSCC1CN1CCOCC1 (stereo not given)	i
C#CCSc1nnc(N2CCN(c3ccccc3OC)CC2)s1	i
CCCCC[C@H](O)CC[C@@H]1[C@@H](C/C=C\CCCC(=O)O)[C@@H](O)C[C@H]1O	i
NC(=O)c1ccccc1NC(=O)c1c[nH]c2c(C(F)(F)F)cccc2c1=O	i
CS(=O)(=O)c1ccc(NS(=O)(=O)c2cccs2)cc1	i
COc1cccc(NC(=O)N2CCN(c3nc4ccc(S(C)(=O)=O)cc4s3)CC2)c1	i
Cc1noc(C2CCN(C(=O)C3CCCN(C)C3)CC2)n1 (stereo not given)	i

# Another view of 4 compounds above.
Cc1noc(-c2ccn3c(=O)n(Cc4ccc(F)cc4)nc3c2)n1
  GIRK2 activ = i

CCCCC[C@H](O)CC[C@@H]1[C@@H](C/C=C\CCCC(=O)O)[C@@H](O)C[C@H]1O
  GIRK2 activ = i

O=C(CC1CCCCC1)N1CCCSCC1CN1CCOCC1 (stereo not given)
  GIRK2 activ = i

Cc1noc(C2CCN(C(=O)C3CCCN(C)C3)CC2)n1 (stereo not given)
  GIRK2 activ = i

# (listing goes on)
Compound	GIRK2 activ
C#CCOCC1CCCN(S(=O)(=O)c2ccc(OC)c(OC)c2)C1 (stereo not given)	i
NC(=O)c1nnn(-c2ccc(NS(=O)(=O)/C=C/c3ccccc3)cc2)n1	i
Cc1nn(-c2ccccc2)c(C)c1N1CCN(C(=O)/C=C/c2ccc3c(c2)OCO3)CC1	i
CN1CC(NC(=O)c2ccccc2Cl)CC1=O (stereo not given)	i
COC(=O)C1=CC(=O)C[C@H]2[C@]3(C)C[C@@H](c4ccoc4)OC(=O)[C@H]3CC[C@@]12C	i
COC(=O)CN1N=C(c2ccccc2)Cn2c1nc1c2c(=O)n(C)c(=O)n1C	i
NC(=O)Cc1csc(NC(=O)c2coc(NC(=O)c3ccccc3)n2)n1	i
Cc1cc(C(=O)Nc2nc(C(=O)N3CCn4c3nc3ccccc34)co2)no1	i
O=C(NCCC(O)c1ccoc1)C(=O)Nc1cccc(N2CCCC2=O)c1 (stereo not given)	i
O=C(CCc1csc2nc(C3CC3)cn12)NCc1ccccc1F	i
N#Cc1cnc2ccc(F)cc2c1N1CCC(C(=O)N2CCCCCC2)CC1	i
O=C(Cn1c(=O)oc2ccccc21)N1CC(Oc2nc3c(C(F)(F)F)cccc3s2)C1	i
N#Cc1cnc2ccc(F)cc2c1N1CCC(C(=O)Nc2ccc3c(c2)OCCO3)CC1	i
COc1cc2[nH]c3c(=O)n(CCC(=O)NCc4ccc(C)cc4)cnc3c2cc1OC	i
COc1ccc(CCC(=O)NCc2nc(C)no2)cc1	i
COc1cccc(CNC(=O)Cn2nc3c(cc2=O)CCCC3)c1OC	i
CCCN1CCN(c2cc3c(cc2F)c(=O)c(S(=O)(=O)c2cc(C)cc(C)c2)cn3C)CC1	i
Cc1cccc2sc(N(CCN(C)C)C(=O)CCCS(=O)(=O)c3ccccc3)nc12	i
CCN(CC)CCN(C(=O)c1cccc(F)c1)c1nc2c(S(C)(=O)=O)cccc2s1	i
COc1cc(C(=O)Nc2nc(-c3cc4ccccc4o3)cs2)cc(OC)c1OC	i
O=C(NCc1cccnc1)c1ccc(S(=O)(=O)Nc2ccc(OC(F)(F)F)cc2)o1	i
C/C=C/C1=CC(=O)[C@H](O)[C@H]1O	i
O=C(Nc1nc2c(F)cccc2s1)c1cc(-c2ccco2)on1	i
COC(CNC(=O)CCCCCn1c(=S)[nH]c2cc3c(cc2c1=O)OCO3)OC	i
Cc1cc(NC(=O)Cn2cnc3c2c(=O)n(C)c(=O)n3C)sn1	i
COCCCNC(=O)c1c(N)n(/N=C\c2ccc(C)cc2)c2nc3ccccc3nc12	i
COCCn1c(-n2nc(C)c(C)c2C)nc2c1c(=O)n(Cc1ccccc1C)c(=O)n2C	i
O=C(c1nc2ccccc2s1)N1CCCC(c2nnc(-c3cccs3)o2)C1 (stereo not given)	i
COc1ccc(Cl)cc1N1CCn2c1nc1c2c(=O)n(C)c(=O)n1C	i
CCCc1cnc2c(c1SC1CCCC1)c(=O)n(C)c(=O)n2C	i
CCOC(=O)c1cnn2ccc(NC(=O)c3cc4cccc(OC)c4o3)cc12	i
O=C(NCc1ccccc1C(F)(F)F)c1c(O)c2sccc2[nH]c1=O	i
COC(=O)c1ccc2c(c1)sc(=NC(=O)Cc1ccc(S(C)(=O)=O)cc1)n2C	i
CCOC(=O)C(=O)Nc1cc(C)nn1-c1nc(-c2ccc(OCC)cc2)cs1	i
CCOCC(=O)NCc1cnn2ccccc12	i
Cc1csc(C(=O)N2CCC(C(=O)Nc3cc(C)on3)CC2)c1	i
CS(=O)(=O)c1ccc(NC(=O)c2ccc(S(=O)(=O)N3CCCC3)cc2)cc1	i
COc1cccc(C2C(C(=O)c3sc(C)nc3C)=C(O)C(=O)N2CCN(C)C)c1 (stereo not given)	i
CCOC(=O)C(CC)Sc1nnc(C)c2cnn(-c3ccccc3OC)c12 (stereo not given)	i
CCc1ccc(OCC(=O)Nc2nonc2-c2ccc(OC)cc2)cc1	i
O=C(CSCc1ccccc1)N1CCN(c2ncnc3c2nnn3-c2ccccc2)CC1	i
COCCCNc1oc(-c2ccc(S(=O)(=O)N3CCOCC3)cc2)nc1C#N	i
CN(C(=O)Cn1nc(-c2cccs2)c2sc(N3CCCC3)nc2c1=O)c1ccccc1	i
O=C(NCCc1ccsc1)C(=O)Nc1cccc(N2CCCCC2=O)c1	i
CCc1nc2oc3ccc(Br)cc3c(=O)c2c(=O)n1Cc1ccco1	i
CC(=O)c1cccc(NS(=O)(=O)c2ccc(N3C(=O)CCC3=O)cc2)c1	i
COc1ccc(-c2noc(CN3N=NC4C(=O)N(c5ccc(F)c(F)c5)C(=O)C43)n2)c(OC)c1 (stereo not given)	i
CCc1ccc(-n2c(=O)c3ccccc3n(Cc3nc(-c4ccc(OC)cc4OC)no3)c2=O)cc1	i
CC(C)N(CC#CCNC(=O)c1ccc(C(F)(F)F)cc1)C(C)C	i
CSc1ccccc1NC(=O)C(=O)NCC(O)c1sccc1C (stereo not given)	i

# Continued.
Compound	GIRK2 activ
Cc1ccc(C(=O)Nc2sc3c(c2-c2nc4ccccc4s2)CCN(C)C3)cc1	i
Cc1cc(C)cc(NC(=O)Cn2nnc(C(=O)Nc3ccc(F)cc3)c2N)c1	i
Cn1nnn(-c2ccc(NC(=O)c3ccco3)cc2)c1=O	i
O=C(Cc1c[nH]c2ccccc12)NCCn1nc(C2CC2)n(-c2ccccc2)c1=O	i
CC(=O)c1ccc(N2CCN(C(=O)CCCc3nnc4n(C)c(=O)c5sccc5n34)CC2)cc1	i
Cc1cccc(Cn2cccc(S(=O)(=O)N3CCOCC3)c2=O)c1	i
CCCn1c(=O)c2c(nc3n2CCN3c2ccc(C)cc2)n(C)c1=O	i
O=C(/C=C/c1ccccc1Cl)NCCOc1cccc2cccnc12	i
CCOC(=O)CC1=CC(SCC(=O)Nc2c(C)cccc2CC)=Nc2ccccc2N1	i
O=C(Nc1n[nH]c2nc(-c3ccco3)ccc12)C1CC1	i
CCOC(=O)Cn1c(=O)c2c(nc3n(CC(C)C)c(C)c(C)n23)n(C)c1=O	i
O=C(NCCc1ccccc1)c1ccc(Oc2nccnc2N2CCOCC2)cc1	i

# At a glance, some entries already given.
Compound	GIRK2 activ
CCOC(=O)Cn1c(=O)c2c(nc3n(CC(C)C)c(C)c(C)n23)n(C)c1=O	i
O=C(NCCc1ccccc1)c1ccc(Oc2nccnc2N2CCOCC2)cc1	i

# This is a subset; the hit share may differ from the screen's.
